UCH37 inh = human UCH37 deubiquitinating enzyme inhibition; Q9Y5K5; purified proteasome/UCH37, Ub-AMC cleavage fluorescence; inhibition, % (concentration not given with the values); actives 0.33% (n = 330,000); AID 588478;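 active = mean of two replicates above 20%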;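 also: 0% = compound-free wells with enzyme and 100% = wells lacking proteasome; stock transfer was 100 nL into about 20 µL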
Target sequence (Q9Y5K5 whole entry, looked up): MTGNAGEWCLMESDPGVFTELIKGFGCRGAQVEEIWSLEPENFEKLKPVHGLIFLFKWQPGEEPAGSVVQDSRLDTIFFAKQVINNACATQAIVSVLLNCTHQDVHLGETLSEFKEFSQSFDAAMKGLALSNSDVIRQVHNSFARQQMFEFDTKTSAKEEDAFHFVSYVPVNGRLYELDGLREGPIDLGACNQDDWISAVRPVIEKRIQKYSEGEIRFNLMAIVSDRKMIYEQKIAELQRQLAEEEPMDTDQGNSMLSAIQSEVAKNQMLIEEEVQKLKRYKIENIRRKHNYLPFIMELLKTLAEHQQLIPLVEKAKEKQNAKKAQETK
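Reagent: Ub-AMC substrate; assay system: Proteasome-associated human UCH37 deubiquitinase; controls: no-proteasome and no-compound wells; read-out: % inhibition of Ub-AMC cleavage fluorescence; timing: 30 min preincubation with enzyme, 25 min cleavage at room temperature; signal: AMC fluorescence from Ub-AMC cleavage, excitation 355 nm, emission 460 nm; buffer or medium: Tris-HCl pH 7.4 plus ovalbumin, ATP-MgCl2, DTT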
Vif TR-FRET = inhibitors of Vif binding to APOBEC3G peptide, primary screen, biochemical, TR-FRET, GST-Vif 1-94, biotin-A3G peptide, dose response retest (AID 1117319); one-dose inhibition, %; IC50 in µM for titrated hits; actives 0.57% (n = 260,000); TR-FRET GST-Vif / biotin-A3G peptide binding; higher % means a stronger effect; test concentration not given here; strong numbers were not always called active;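 active = above the screen mean plus three standard deviations and confirmed in dose response; inconclusive = results disagree or hit not tested in dose response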;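 also: Vif residues 1-94 fused to GST binding biotinylated APOBEC3G peptide 110-148; 0% = full assay without inhibitor and 100% = GST in place of GST-Vif; retest series ran down from 100 µM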
Beta2AR agonist = activates human beta-2 adrenergic receptor causing internalization | Am2.2-beta2AR cells, FAP receptor internalization, flow cytometry; reference of the scale not given here | response, % (no concentration beside the values) | actives 0.43% (n = 340,000);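 active = response above a set limit, near 3 SD of response in nonfluorescent compounds, cut at about 42% in these data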;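 also: stock transfer was 100 nL into about 11 µL; a reference agonist was the positive control; negative values mostly stem from fluorescent compounds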
LANA-H2B inh = blocks KSHV LANA binding to histone H2A/H2B; actives 0.6% (n = 320,000); inhibition, % (no concentration beside the values); Q9QR71; cell-free LANA-H2A/H2B peptide, fluorescence polarization; in the data active = inhibition mostly above about 10%, no sharp cut-off; inactive = mostly below about 6.7%;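 also: stock transfer was 7.5 nL into about 10 µL; 0% = median of vehicle wells and 100% = median of positive control wells; one replicate is shown; the record names a cut of 25% in any replicate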
HNF4A DNA FP = change in binding of human HNF4 alpha to DNA. activity change, % at 10 µM. P41235. HNF4a-FITC DNA binding, fluorescence polarization, 1 h. AID 1224865. actives 0.3% (n = 360,000); in the data active = activity change above about 30%, passing the limit was not always enough;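 also: controls were the assay level and a saturating level of protein; the project sought stronger binding though the title names inhibitors; some compounds called inactive have numbers as strong as hits; positive values seem to mean higher polarization but the record does not say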
Target sequence (P41235 whole entry, looked up): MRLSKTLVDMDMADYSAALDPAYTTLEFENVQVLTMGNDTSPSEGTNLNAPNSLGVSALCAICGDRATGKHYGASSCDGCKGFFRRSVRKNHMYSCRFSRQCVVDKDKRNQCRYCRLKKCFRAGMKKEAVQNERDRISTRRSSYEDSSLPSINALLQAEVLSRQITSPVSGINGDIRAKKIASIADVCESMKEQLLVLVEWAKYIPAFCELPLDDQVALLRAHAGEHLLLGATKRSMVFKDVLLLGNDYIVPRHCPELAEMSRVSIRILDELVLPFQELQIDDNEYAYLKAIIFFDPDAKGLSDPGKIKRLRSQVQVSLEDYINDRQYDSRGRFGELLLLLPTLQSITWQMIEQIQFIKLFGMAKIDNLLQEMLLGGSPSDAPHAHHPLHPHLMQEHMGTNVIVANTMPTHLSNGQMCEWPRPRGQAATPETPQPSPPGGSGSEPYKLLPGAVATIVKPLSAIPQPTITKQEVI
Bfl-1 A1 inh = inhibitors of the anti-apoptotic protein A1, read as caspase activation; MEF A1-2A-BIM cells, Caspase-Glo 3/7 luminescence, 3 h; percent of clofoctol response, vehicle zero; AID 2462; caspase activation, % (concentration not given with the values); actives 0.066% (n = 330,000);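 active = over half of replicate activation scores above 10%, or exactly half above 10 with the replicate mean above 10; inconclusive = replicate mean below 10 yet half the replicates above 10; inactive = over half of replicates below 10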;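 also: wells of about 30 µL received 50 nL stock; many hits fall short of the cut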
Ecoli growth = inhibitors of Escherichia coli growth | actives 0.21% (n = 330,000) | OD600, 23 h; hits give low values | OD600 absorbance (no concentration beside the values);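 active = OD600 absorbance below the run mean of sample wells minus 3.6 SD, in any replicate, cut at about 0.56 in these data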;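 also: stock transfer was 300 nL into about 60 µL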
The depositor's hits bear a star; i = inactive; ? = inconclusive; · = not tested or not shown.

SMILES	UCH37 inh	Vif TR-FRET	Beta2AR agonist	LANA-H2B inh	HNF4A DNA FP	Bfl-1 A1 inh	Ecoli growth
Cc1ccc(Cl)c(OCC(=O)Nc2cccnc2)c1	-2.7	·	-7.8	23.0	-2.7	0.2	0.659
Cc1ccccc1NS(=O)(=O)c1ccc(OCC(=O)NCc2ccco2)cc1	2.9	4.9%	2.2	4.5	-1.7	-0.9	0.744
CCn1c(=O)c2c(nc(SCC(=O)NC3CCCC3)n2C)n(C)c1=O	3.7	·	-9.2	-3.6	-2.8	0.6	0.616
CCN(CC)C(=O)CSc1nnc([C@@H](N)C(C)C)o1	2.8	-0.4%	-1.2	0.6	2.2	-0.6	0.687
CSc1ccccc1OCc1cc(C(=O)NCc2ccc(C)s2)no1	2.3	·	9.9	6.9	-0.1	0.3	0.655
Nc1c(C(=O)Nc2ccc(Cl)cc2)oc2ccccc12	-64.3	-0.7%	13.9	-1.5	3.4	-3.9	0.723
O=C(COC(=O)c1cncc(Br)c1)NC1CCCCCC1	1.0	-7.5%	-3.5	5.3	1.8	-0.1	0.696
Cc1nonc1OCC(C)(COc1nonc1C)NC(=O)c1ccc(Cl)cc1	1.3	9.4%	-4.5	2.9	1.2	0.4	0.718
CC(=O)Nc1ccc2[nH]c3ccccc3c2c1	1.1	?	2.2	-4.0	-1.3	0.0	0.645
Cc1noc(C)c1C(=O)NC1=NCCS1	2.1	7.2%	3.1	-4.4	-1.1	0.8	0.721
N#Cc1cccnc1N1CCN(C(=O)c2cccs2)CC1	-64.3	-4.5%	3.1	1.3	2.6	0.3	0.665
CCCC(=O)NNc1cc(=O)c2c(=O)n(C)c(=O)n(C)c2[nH]1	1.2	4.5%	10.2	0.3	3.1	-0.1	0.67
CC(C)CN(C(=O)CSc1nncn1-c1ccccc1)c1c(N)n(CC(C)C)c(=O)[nH]c1=O	-0.4	-11.2%	-5.3	4.5	-2.5	0.1	0.703
O=C(CCN1C(=O)c2ccccc2C1=O)Nc1ccc(-c2nc3ccccc3o2)cc1	2.1	-6.3%	-7.5	-5.5	1.8	-3.5	0.738
COCc1[nH]nc2c1C1(C(=O)Nc3ccc(F)cc31)C(C#N)=C(N)O2 (stereo not drawn)	1.7	-4.6%	-4.8	3.1	1.9	-0.2	0.714
O=C(COC(=O)c1ccc(CO)cc1)c1ccc(S(=O)(=O)N2CCCCC2)cc1	3.6	5.9%	-6.4	0.2	-3.4	0.5	0.69
O=c1[nH]c2ccccc2nc1NCc1ccccc1	-24.8	·	-12.8	11.6	1.9	-0.1	0.622
Cc1sccc1/C=N/NC(=O)c1ccco1	·	·	-6.1	0.5	2.6	-0.6	·
O=C(Nc1cc(=O)[nH]c2nc(-c3ccccc3)nn12)c1ccccc1Cl	2.1	-36.0%	4.7	1.9	11.4	0.5	0.714
CCCNC(=O)Cn1c(-c2ccc(F)cc2)cc(C(=O)OCC)c1C	-0.4	4.4%	1.7	1.6	-5.7	-1.0	0.723
O=C(COC(=O)Cc1cccs1)Nc1cccc(S(=O)(=O)N2CCOCC2)c1	4.0	0.2%	2.2	-0.1	-0.6	-0.1	0.647
CCOC(=O)C1=C(COC(=O)c2ccc(OC(C)C)cc2)NC(=O)NC1C (stereo not drawn)	-1.3	8.6%	-2.4	1.3	3.1	0.7	0.674
Cc1noc(C)c1C(=O)Nc1sccc1C(N)=O	5.9	·	2.4	-10.4	2.6	0.1	0.705
COc1ccc2sc(-c3ccccc3OC)c(-c3ccc(O)cc3)c2c1	·	·	-6.8	8.8	-1.0	-0.4	·
CCN(CC)CCNC(=O)Cn1cnc2sc(C)c(S(=O)(=O)N3CCOCC3)c2c1=O	4.7	17.0%	-6.4	1.2	-0.3	-0.7	0.693
Cc1ccccc1N/C(=N/S(=O)(=O)c1cc(F)ccc1F)c1ccccc1	0.8	·	24.6	9.0	1.0	0.0	0.71
COc1ccc(S(=O)(=O)NC2CC(=O)N(c3cccc(F)c3)C2)cc1OC (stereo not drawn)	-0.2	8.4%	-2.8	·	-0.4	0.1	0.713
COc1ccc(Cl)c(Cn2c(NCC(C)O)nc3c2c(=O)n(C)c(=O)n3C)c1 (stereo not drawn)	1.1	22.4%	-5.3	1.1	0.1	0.2	0.69
Cc1cccc(NC(=O)C2CCCC2)c1	0.6	21.9%	2.5	4.1	1.9	0.5	0.676
COC(=O)[C@H](CC(C)C)NS(=O)(=O)c1ccccc1	1.2	·	10.7	-2.2	3.1	0.2	·
Cc1oc(-c2cccc(F)c2)nc1CN1CCCCC1CCc1ccccn1 (stereo not drawn)	-0.3	-10.5%	-5.7	2.0	-2.5	-0.1	0.66
CCN(CC(=O)NCc1cccs1)C(=O)/C=C/c1cccc(Br)c1	3.3	-0.7%	-1.2	3.3	-0.6	-0.8	0.617
Cc1cc(NC(=O)COC(=O)c2ccccc2NCCO)no1	-463.5	-1.1%	10.5	-1.0	0.8	0.7	0.719
CCOC(=O)C1=C(C)Nc2nnnn2C1c1cccnc1 (stereo not drawn)	1.5	-4.8%	-2.9	-0.5	-0.7	0.0	0.733
O=C(O)CSCc1cn2cc(Cl)ccc2n1	-2.4	-3.7%	-9.0	-1.9	0.3	0.2	0.704
COc1cc(NC(=O)COC(C)=O)c(C)cc1[N+](=O)[O-]	1.7	·	3.1	-2.8	1.5	0.1	0.666
CC1CN(CCOCCSc2ccc(Cl)cc2)CC(C)O1 (stereo not drawn)	1.5	·	6.6	-0.7	1.3	1.4	0.641
CCC(=O)O/N=C(\N)c1ccc(Oc2cc(C)c(Cl)c(C)c2)c([N+](=O)[O-])c1	·	-4.5%	7.2	9.0	3.4	0.8	·
O=C(CN1C(=O)NC(c2ccccc2)(c2ccccc2)C1=O)NCc1ccccc1	4.9	·	2.0	·	0.7	·	0.67
Cc1ccc(C)c(NC(=O)Cc2coc3cc4c(cc23)CCC4)c1	3.5	-12.6%	13.7	-1.3	-0.4	2.5	0.719
Cc1ccc2[nH]c3c(=O)n(CC(=O)Nc4ccccc4N4CCN(C)CC4)ncc3c2c1	-11.1	·	4.0	-2.2	3.8	1.1	0.637
FC(F)(F)COc1cc(-c2nnc(SCc3ccccc3)n2Cc2ccco2)cc(OCC(F)(F)F)n1	6.6	-9.2%	2.7	1.3	5.0	0.5	0.679
CCOC(=O)c1ccccc1NC(=O)c1c(F)c(F)c(F)c(F)c1F	2.9	-0.8%	14.1	-0.7	-3.9	0.1	0.709
Cc1ccc(S(=O)(=O)NC2=NCN(CC(=O)O)CN2)cc1	-1.2	·	-4.4	0.7	1.1	1.4	0.689
O=C(CSc1ncccc1C(=O)O)NC1CCCCC1	3.8	·	-0.1	1.8	1.5	5.5*	0.699
COc1ccc2sc(N3C(=O)CC(Cc4cccc(C)c4)C3=O)nc2c1 (stereo not drawn)	2.9	0.3%	-4.0	-0.8	-0.5	0.4	0.652
O=C(CC1C(=O)NCCN1C(=O)Nc1ccccc1)Nc1ccc2c(c1)OCO2 (stereo not drawn)	1.4	2.3%	-2.7	-1.6	0.6	-0.9	0.717
COCCCN(C(=S)NC(=O)C12CC3CC(CC(C3)C1)C2)c1c(N)n(Cc2ccccc2)c(=O)[nH]c1=O	0.8	8.9%	1.6	1.0	2.1	0.4	0.726
Cc1ccc(CNC(=O)Cc2ccc(Br)cc2)cc1	1.7	·	-7.0	4.2	1.3	0.5	0.618
Cc1ccc(CSc2nnc(-c3ccccc3N)c(=O)[nH]2)cc1	3.1	1.2%	-8.9	-0.2	0.1	0.2	0.633
Cc1ccc(NC(=O)C2CCN(S(=O)(=O)c3ccc4c(c3)OCCO4)CC2)nc1	1.3	7.2%	-5.8	3.9	-3.2	-0.1	0.643
Cc1ccc2nc3c(cc(C(=O)NCCCn4ccnc4)n3C)c(=O)n2c1	i	-2.8%	-2.7	8.5	-0.4	-0.1	0.718
CC(=O)c1ccc(N2CCN(C(=O)CCCn3c(=O)[nH]c4ccccc4c3=O)CC2)cc1	1.9	5.1%	6.6	2.8	-1.5	0.2	0.732
O=C(CCc1nc(-c2ccccc2F)no1)NCc1ccco1	2.1	-3.4%	-9.1	-0.2	4.2	0.9	0.713
CN(CC(N)=O)S(=O)(=O)c1ccc(F)cc1	3.6	-1.7%	3.4	-7.7	2.6	0.3	0.72
Cc1ccc(C(=O)CNc2cccc([N+](=O)[O-])c2)cc1	-1.6	2.1%	-1.8	-0.3	-4.5	-1.5	0.638
O=C(COC(=O)c1ccc(C(F)(F)F)cc1)NC(=O)NC1CCCC1	-0.8	·	-5.7	·	0.0	·	0.68
CC(=O)N1CCc2cc(S(=O)(=O)CCC(=O)NCc3ccc4c(c3)OCO4)ccc21	0.3	24.0%	1.0	2.1	0.6	-0.6	0.763
O=[N+]([O-])c1ccc2c(c1)[nH]c(=S)n2-c1ccccc1	3.6	9.3%	12.7	3.1	1.8	-0.6	0.663
Cc1c(-c2ccccc2)sc(Br)c1C(=O)N1CCOCC1	6.0	11.2%	-4.5	1.8	-3.5	0.7	0.706

Next records:
SMILES	UCH37 inh	Vif TR-FRET	Beta2AR agonist	LANA-H2B inh	HNF4A DNA FP	Bfl-1 A1 inh	Ecoli growth
COc1cc(NC(=O)C23CC4CC(C2)CC(n2cnc([N+](=O)[O-])n2)(C4)C3)cc(OC)c1	1.1	·	0.3	3.4	0.0	0.8	0.677
CC12CCC(C(=O)N3CCN(c4ccccc4)CC3)(CC1=O)C2(C)C (stereo not drawn)	4.1	2.0%	·	-2.3	·	-0.6	0.689
O=C(OC1CCOC1=O)c1cncc(Br)c1 (stereo not drawn)	1.0	2.3%	16.1	-5.4	-2.3	1.8	0.713
CN(Cc1cccs1)C(=O)c1ccc(S(=O)(=O)N2CCCCC2)cc1	2.4	32.0%	-8.0	1.0	-1.1	1.1	0.671
CC(=O)N1CCN(c2ccccc2NC(=O)c2cc(Br)ccc2Cl)CC1	0.1	2.8%	4.1	-2.3	3.6	-0.1	0.747
CC(C)NC(=O)c1sc2c(c1C(=O)Nc1cccnc1)CCCC2	1.5	22.0%	-8.2	0.1	0.4	-1.2	0.627
Cc1ccc(/C=N/NC(=O)c2nnn(-c3nonc3N)c2CSc2ccccc2)cc1	·	-1.4%	2.8	-2.9	1.6	1.3	·
CCN(Cc1cc(=O)n2cc(Cl)c(C)c(Cl)c2n1)Cc1nc2ccccc2c(=O)[nH]1	0.8	24.5%	-10.9	0.6	-2.6	-0.3	0.711
O=C(Nc1ccc(Cl)cc1)N(CCCN1CCOCC1)Cc1cccs1	7.3	5.3%	-4.0	-0.8	-3.3	0.4	0.696
O=C1N(Cc2ccc3c(c2)OCO3)c2ccccc2C1(O)c1c[nH]c2ccccc12 (stereo not drawn)	2.1	11.2%	0.7	3.2	5.5	0.6	0.659
O=C(NCCc1ccccc1)c1ccc(OCCOc2ccccc2)cc1	2.7	0.5%	-2.5	3.7	0.2	-1.0	0.723
Cc1cccc(C(=O)Oc2ccccc2C2C[C@]3(C)CC(=O)NC3N2C(=O)c2cccc(C)c2)c1 (stereo partly drawn)	2.0	-1.6%	4.6	-2.9	-1.8	1.4	0.696
CCCNc1nc2c(c(=O)[nH]c(=O)n2C)n1Cc1cccc(Br)c1	0.1	-3.4%	-2.2	2.5	-0.1	2.1	0.748
Cc1ccc(NC2=C/C(=N/S(=O)(=O)c3cccs3)c3ccccc3C2=O)cc1	·	·	43.3*	-3.5	2.9	-1.0	·
COc1ccccc1C1CC(=O)Oc2cc(C)cc(C)c21 (stereo not drawn)	2.3	-2.9%	-0.5	·	-4.9	·	0.688
